Screens as filed in PubChem.
Env fusion inh: inhibitors of HIV-1 Env-driven cell-cell fusion, primary screen, HeLa-JRFL effector, CEM21 target cells, luciferase; inhibition, % at 12.3 µM; 360,000 tested, 1.1% active; AID 651610, 2012;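 active means mean replicate inhibition score of at least 50 and every replicate individually at or above 50; inconclusive means only one of the two criteria met; inactive means mean below 50 and not all replicates reaching 50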;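 further: 0% = plate neutral controls and 100% = maraviroc near 300 nM; one replicate is shown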
MT1-MMP act inh: blockers of MT1-MMP proenzyme processing, primary screen, HT1080 RFP-PRO-GFP cells, GFP/RFP fluorescence; Matrix metalloproteinase-14 (Homo sapiens), P50281; GFP/RFP ratio fluorescence, overnight; percent of plate control window, DMSO zero; GFP/RFP ratio change, % at 20 µM; 360,000 tested, 0.061% active; AID 651647, 2012;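 active means GFP/RFP ratio change of at least 30% with cell ATP level not reduced by more than half and red fluorescence within 50% of control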; further: strong numbers were not always called active
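Test system: HT1080 RFP-PRO-GFP cells; Benchmarks: DMSO and RFP-L50D-GFP cell wells; Timing: cells overnight before dosing, compound overnight, 37 °C, 5% CO2; Compound: one 20 µM compound dose with 1% DMSO; Read-out: GFP/RFP fluorescence ratio.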
MT1-MMP act inh RFP: second read-out of MT1-MMP act inh, no call of its own (marks repeat the call); RFP signal change, %; measured here: RFP expression control read;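 0 = vehicle wells; hits needed this value within 50% of zero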
An asterisk follows results filed as active; i = inactive; ? = inconclusive. Some of the compounds tested; count on the stated rates, not on these rows.

Env fusion inh,MT1-MMP act inh,MT1-MMP act inh RFP,structure
22,-8,-7,CCCCCCSc1ccc(-c2nc3cnccn3c2NC2CCCCC2)cc1
-8,0,0,CC1(c2nnnn2-c2ccc3c(c2)OCCO3)CCC(=O)N1CCc1ccccc1F (stereo not given)
22,2,6,CC(C)C[C@@H]1Cc2[nH]c(=S)[nH]c(=O)c2[C@H](C)O1
-9,5,0,COc1ccc(S(=O)(=O)N2CCC[C@H]2C(=O)N2CCC[C@H]2C(=O)N[C@@H](C)c2ccccc2)cc1C
11,13,-5,O=C(O)C12C3CCC(O3)C1(C(=O)O)C1CCC2O1 (stereo not given)
-8,-2,-2,CCOc1ccc2c(c1)C(=NNC(=O)c1ccccn1)c1cc(OCC)ccc1-2
14,6,4,C#CCNC(=O)C[C@@H]1C[C@@]2(C(=O)OC)CCCCC=C2N(Cc2ccc3c(c2)OCO3)C1=O
8,4,-7,CCC(C)c1ccccc1N1CC(C(=O)N2CCN(c3ccccc3)CC2)CC1=O (stereo not given)
32,-7,-9,COC(=O)[C@]12CCCCC=C1N(CCC1=CCCCC1)C(=O)[C@H](CC(=O)NCc1cccc3ccccc13)C2
2,-3,0,O=S(=O)(Nc1cccc(-n2cnnn2)c1)c1ccc(F)cc1
11,-2,-2,Cc1ccccc1NC(=O)N(O)C1(C#N)CCCCC1
-2,-1,-4,O=C(CN(C(=O)c1ccccc1)C(=O)c1ccccc1)OCc1ccccc1
-13,7,-3,CSc1ncnc2c1ncn2CCCNc1ccc(C)c(C)c1
2,-3,-1,O=C(c1ccc(F)cc1)c1cccc(C(=O)c2ccc(F)cc2)n1
-24,5,5,COC(=O)[C@@]1(Sc2ccccc2)CC(=O)N[C@@H]1c1ccccc1
-13,-12,-7,O=C1CN(C(=O)COc2ccc(Cl)c(Cl)c2)c2ccccc2N1
-8,5,0,COC(=O)[C@]12CCCCC=C1N(Cc1ccc3c(c1)OCO3)C(=O)[C@H](CC(=O)NCc1cccc(C(F)(F)F)c1)C2
-101,-1,2,O=C(NCc1ccccc1Cl)[C@H]1CCCN1C(=O)[C@H]1CCCN1
4,-1,3,Cc1cccc(C)c1NC(=O)C(c1cc2ccccc2o1)N1CCN(C)CC1 (stereo not given)
-2,5,8,CC1(C(=O)Nc2ccc3c(c2)OCCO3)CN(S(C)(=O)=O)CC(=O)N1Cc1cccc(C(F)(F)F)c1 (stereo not given)

Next section (5 carried over from the part before).
Env fusion inh,MT1-MMP act inh,MT1-MMP act inh RFP,structure
-13,-12,-7,O=C1CN(C(=O)COc2ccc(Cl)c(Cl)c2)c2ccccc2N1
-8,5,0,COC(=O)[C@]12CCCCC=C1N(Cc1ccc3c(c1)OCO3)C(=O)[C@H](CC(=O)NCc1cccc(C(F)(F)F)c1)C2
-101,-1,2,O=C(NCc1ccccc1Cl)[C@H]1CCCN1C(=O)[C@H]1CCCN1
4,-1,3,Cc1cccc(C)c1NC(=O)C(c1cc2ccccc2o1)N1CCN(C)CC1 (stereo not given)
-2,5,8,CC1(C(=O)Nc2ccc3c(c2)OCCO3)CN(S(C)(=O)=O)CC(=O)N1Cc1cccc(C(F)(F)F)c1 (stereo not given)
-4,5,3,CCCCNC(=O)C[C@@H]1C[C@@]2(C(=O)OC)CC(C)(C)CC=C2N(CCc2ccc(OC)c(OC)c2)C1=O
-5,0,4,COc1ccc(Cn2cc(CN3CC(N4CCCCC4)CS3(=O)=O)nn2)cc1 (stereo not given)
-8,-5,-12,Cc1cccc(C)c1NC(=O)C(c1ccc(C(F)(F)F)cc1)n1c(=O)c(-c2ccccc2)nc2ccccc21 (stereo not given)
-2,-1,1,CCOC(=O)[C@]12CCCC=C1N(Cc1ccco1)C(=O)[C@H](CC(=O)NCc1ccc(OC)c(OC)c1)C2
?,-2,4,O=C1NC[C@H](CCCCN2CCN(CCc3ccccc3)C(=O)C2=O)N(CCc2ccc(O)cc2)C1=O
-27,-3,-12,CCOC(=O)[C@]12CCCC=C1N(Cc1cccc3ccccc13)C(=O)[C@H](CC(=O)NCc1cccs1)C2
11,0,-17,CCCCc1c(-c2ccccc2OC)ncn1CCc1cccc(Cl)c1
11,-13,-6,N#Cc1ccc2[nH]cc(C3c4cc(F)ccc4C=C(c4ccsc4)N3c3ccc(C#CCCO)cc3)c2c1 (stereo not given)
-2,1,1,CCOC(=O)[C@]12CCCC=C1N(Cc1cccc3ccccc13)C(=O)[C@H](CC(=O)NCCCN1CCCC1=O)C2
-40,2,-4,COc1ccc(Cc2c(-c3cccc(Cl)c3)nc3cc(C)c(Br)c(C)n23)c(C)c1
-34,0,1,Cc1nccn1CCC(=O)NC1CC(C)(C)Cc2c1cnn2-c1ccccc1 (stereo not given)
29,-74,-12,CC(=NNc1nc2ccccc2o1)c1cc2ccccc2cn1
17,3,1,O=C(NCc1ccccn1)[C@@H]1CCCN1C(=O)[C@@H]1CCCN1C(=O)c1ccc(Cl)cc1
64*,-3,-8,CCOC(=O)CC1(CC)Oc2ccccc2N1S(=O)(=O)c1ccc(C)cc1 (stereo not given)
23,3,3,CC(C)(C)C(=O)c1c(N)[nH]c(C(=O)c2ccccc2)c1-c1ccc(Cl)cc1
-17,0,1,CC(C)C[C@H]1COc2cccc(N(C)CCO)c2S(=O)(=O)N1
-9,-1,1,NC(=O)c1ccc(NC(=O)COC(=O)CCCOc2ccccc2)cc1
-2,-9,-11,COC(=O)[C@@]12C[C@@H](CC(=O)NCCC(C)C)C(=O)N(Cc3ccc4c(c3)OCO4)C1=CCC(C)(C)C2
-118,4,2,Clc1ccc(C=NN2CCCCCC2)cc1
-35,2,1,CCOC(=O)[C@]12CCC=C1N(CCC1=CCCCC1)C(=O)[C@H](CC(=O)NCc1cccc3ccccc13)C2
-1,0,3,C[C@H]1CNC(=O)c2c(C(=O)N[C@@H](Cc3c[nH]c4ccccc34)C(=O)OC(C)(C)C)ncn21
1,-1,2,O=C1ON(Cc2ccccc2)C(c2ccccc2)N1c1ccccc1 (stereo not given)
97*,2,-8,CCCCCCCCN1C(=O)[C@H](CC(=O)NCCCC)C[C@@]2(C(=O)OCC)CCCC=C12
-26,-3,0,O=C(C=Cc1ccccc1)N1CCCCC1
9,2,4,CN(Cc1ccccc1)C(=O)[C@@H]1CCCN1C(=O)[C@@H]1CCCN1C(=O)OC(C)(C)C
26,-13,-21,CC(C)C1C(=O)N(Cc2cn(CC3CCCCC3)nn2)CCS(=O)(=O)N1Cc1ccc(-c2ccc(Cl)cc2)cc1 (stereo not given)
13,10,8,CCC(C)[C@H]1CNC(=O)C(=O)N1CC1CCCCC1 (stereo not given in full)
2,2,3,O=C(Nc1ccc(F)cc1)C(c1ccccc1OC(F)(F)F)N1CCN(C(=O)c2ccco2)CC1 (stereo not given)
-18,-4,4,COC(=O)C[C@@H]1OC[C@H](C(C)C)N1S(=O)(=O)c1ccc(C)cc1
9,-108,-6,N#C/C(=C/c1ccc(-c2ccc([N+](=O)[O-])cc2)o1)c1nnc(N2CCOCC2)n1-c1ccccc1
21,-3,-6,CC1C(=O)N(Cc2cn(Cc3ccco3)nn2)CCS(=O)(=O)N1Cc1ccc(-c2ccc(Cl)cc2)cc1 (stereo not given)
-7,3,3,O=CNC1(c2ccccc2)CCCCC1
18,6,8,COC(=O)[C@@]12C[C@@H](CC(=O)N3CCN(C(=O)C4CC4)CC3)C(=O)N(CCc3ccc(OC)c(OC)c3)C1=CCC(C)(C)C2
-28,0,4,O=C(C(=O)N1CCC(c2ccccc2)CC1)c1ccc(F)c(F)c1
23,3,-2,COCOCCn1cc(CN2CCS(=O)(=O)N(Cc3ccc(-c4cccc(N(C)C)c4)cc3)C(C(C)C)C2=O)nn1 (stereo not given)
-30,2,1,O=C(C=Cc1ccccc1F)c1ccccc1
-29,1,3,CCOc1cc(C(=O)N/N=C/c2cn(-c3ccccc3)nc2-c2cc3ccccc3o2)cc(OCC)c1OCC
10,-1,2,Nc1ccc2ccccc2c1[N+](=O)[O-]
4,-4,-6,Cc1ccc(S(=O)(=O)N(CCCc2c(C)nc(N)[nH]c2=O)Cc2ccc([N+](=O)[O-])cc2)cc1
2,-2,-1,O=C(NNC(=O)c1ccc(S(=O)(=O)N2CCCC2)cc1)c1ccc(Br)cc1
40,-3,-10,CCCCCCCCN1C(=O)[C@H](CC(=O)N2CCSCC2)C[C@@]2(C(=O)OCC)CCCC=C12
6,15,6,Cc1cc(C)c2cc(C#N)c(NCCCN)nc2c1
4,-1,2,Cc1nn(C)c(C)c1NC(=O)CSc1nc(-c2ccccc2F)nc2c1cnn2-c1ccccc1
-9,-1,3,Nc1nc2ccc(Cl)cc2cc1C(=O)NC1CC1
10,1,2,Cc1ccc(OCC(=O)O)c(O)c1
6,-3,-6,CN(Cc1ccccc1)C(c1cc2ccccc2o1)c1nnnn1C(C)(C)C (stereo not given)
62*,-22,-7,CC(=O)c1sc2c(c1OC(=O)c1ccccc1)c(=O)n(-c1ccccc1)c(=S)n2-c1ccccc1
-10,-6,-3,COc1cc(-c2ccc(N3C(c4ccsc4)=Cc4ccc(F)cc4C3c3c[nH]c4ccc(C#N)cc34)cc2)cc(OC)c1OC (stereo not given)
-387,-11,-11,O=Nc1c2cc3ccccc3[nH]c-2c2ccccc12
6,4,1,COC(=O)c1c(-c2ccccc2)oc2c1C(OCCO)CCC2 (stereo not given)
18,4,-6,CCCCOc1ccc(SCCCN2CCOCC2)cc1
0,4,4,COCCCn1cc(CN2CC(N3CCSCC3)CS2(=O)=O)nn1 (stereo not given)
-92,-28,-21,Cn1c2ccccc2c(=O)c2c(=O)n(-c3ccc(F)cc3)c(C3CCCCC3)nc21
-134,4,6,O=c1[nH]cnc2c1ncn2-c1ccc(Cl)cc1
-6,-5,-9,CCCCn1nnnc1C(c1ccccc1)N1CCN(c2ncccc2C(F)(F)F)CC1 (stereo not given)
12,-31,13,O=C(Cc1ccccc1)c1ccccn1
13,-3,-2,NCC1CCN(c2nc3ccccc3c3c2CCCC3)CC1
-25,-5,1,CC(C)N1C(=O)c2ccccc2NC(=O)C1C(=O)NCc1cccs1 (stereo not given)
-10,4,3,Cc1cc(C)c(C(O)c2ncc(-c3ccccc3C)[nH]2)c(C)c1 (stereo not given)
-5,0,0,CN(C)C(=S)N=c1ssc(=S)n1Cc1cccnc1

Looked up above:
MT1-MMP act inh result of CN(Cc1ccccc1)C(c1cc2ccccc2o1)c1nnnn1C(C)(C)C (stereo not given) stands at -3
MT1-MMP act inh RFP result of CC(C)N1C(=O)c2ccccc2NC(=O)C1C(=O)NCc1cccs1 (stereo not given) stands at 1

Remaining list, next part:
Env fusion inh,MT1-MMP act inh,MT1-MMP act inh RFP,structure
-27,1,2,COc1ccccc1C1/C(=C(/O)c2cnn(-c3ccccc3)c2C)C(=O)C(=O)N1CCN(C)C (stereo not given)
-40,5,6,O=C1NC[C@@H](Cc2ccc(O)cc2)N(CCc2cc(C(F)(F)F)cc(C(F)(F)F)c2)C1=O
-25,11,-7,CCOc1ccc(CCN2C(=O)C(=O)N([C@@H](CC(C)C)CN3CCC[C@H]3CN3C(=O)C(=O)NC[C@@H]3Cc3ccccc3)C[C@@H]2CC(C)C)cc1
-28,2,3,CCCN(C)C1CN(Cc2cn(Cc3ccc(C(F)(F)F)cc3)nn2)S(=O)(=O)C1 (stereo not given)
2,-1,3,Cc1ccc(S(=O)(=O)N2CCC[C@H]2C(=O)Oc2ccccc2)cc1
?,-11,-14,COc1ccc(C(C(=O)Nc2ccc(F)cc2)N2CCN(c3cccc(C(F)(F)F)n3)CC2)cc1 (stereo not given)
-20,3,3,CC1CCc2c(sc(NC(=O)c3noc4c3CCCC4)c2C(N)=O)C1 (stereo not given)
-27,-7,-28,C=C1C(=O)C23CCC4C(C)(C(=O)OC)CCCC4(C)C2CCC1(O)C3 (stereo not given)
-13,-2,-25,CCc1c(-c2ccc(F)cc2)ncn1Cc1cccc(-c2ccccc2)c1
-11,-10,-17,Cc1ccccc1COc1cccn2c(N(C)C(=O)CCC3CCCC3)c(C)nc12
12,2,2,O=C(NCCNC(=O)Nc1ccc(Cl)cc1)Nc1ccc(Cl)cc1
7,-4,-5,Cn1c(=O)c2[nH]c(CCC3CCCC3)nc2n(C)c1=O
?,-1,3,COCCNC(=O)C1C(=O)Nc2ccccc2C(=O)N1c1ccc2c(c1)OCCO2 (stereo not given)
2,-7,-19,CCOC(=O)[C@]12CCCC=C1N(Cc1cccc3ccccc13)C(=O)[C@H](CC(=O)NCCCCc1ccccc1)C2
-6,0,-9,Cc1onc(-c2c(F)cccc2Cl)c1C(=O)Oc1ccccc1
-5,-2,13,COc1cc(/C=C/C=C2/CC/C(=C/C=C/c3ccc(O)c(OC)c3)C2=O)ccc1O
4,1,1,CC(C)C[C@H]1CN(CCCC[C@H]2CNC(=O)C(=O)N2CC2CCCCC2)C(=O)C(=O)N1Cc1ccccc1
111*,-1,-34,C=CC(=O)N1C/C(=C/c2ccc(F)cc2)C(=O)/C(=C\c2ccc(F)cc2)C1
i,4,3,CC12CCC(=O)C=C1CCC1C2C(O)CC2(C)C1CCC2(O)C(=O)COC(=O)COCC(=O)O (stereo not given)

Single records, from the list above:
CCCCCCSc1ccc(-c2nc3cnccn3c2NC2CCCCC2)cc1 is listed as Env fusion inh = 22; MT1-MMP act inh = -8; MT1-MMP act inh RFP = -7
CCCCOc1ccc(SCCCN2CCOCC2)cc1 is listed as Env fusion inh = 18; MT1-MMP act inh = 4; MT1-MMP act inh RFP = -6
